Bfl-1 A1 inh – inhibitors of the anti-apoptotic protein A1, read as caspase activation. MEF A1-2A-BIM cells, Caspase-Glo 3/7 luminescence, 3 h; percent of clofoctol response, vehicle zero. actives 0.066% (n = 330,000). AID 2462. caspase activation, % (concentration not given with the values);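 active means over half of replicate activation scores above 10%, or exactly half above 10 with the replicate mean above 10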;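 further: wells of about 30 µL received 50 nL stock; many hits fall short of the cut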
FGF22 binding – FGF22 (human) thermal shift binding; Q9HCT0; recombinant FGF22 thermal shift, SYPRO orange fluorescence; percent of sucrose octasulfate shift, DMSO zero; calls only at 9.99 µM; actives 1.5% (n = 340,000); AID 651658;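 active means melting point raised past a set limit in the mean and every replicate; three in four hits are not shown here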
Target sequence (Q9HCT0 whole entry, looked up): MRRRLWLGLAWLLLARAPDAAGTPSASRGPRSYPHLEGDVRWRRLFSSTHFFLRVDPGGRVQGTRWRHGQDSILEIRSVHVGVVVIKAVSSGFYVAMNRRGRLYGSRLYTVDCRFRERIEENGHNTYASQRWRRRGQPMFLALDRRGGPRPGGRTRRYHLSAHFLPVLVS
T cruzi repl – T. cruzi replication inhibition | T. cruzi beta-gal in NIH3T3, luminescence, 90 h | inhibition, % (no concentration beside the values) | actives 1.4% (n = 300,000) | AID 1885;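 active means mean inhibition across valid replicates above about 55%, limit read from the data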;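 further: signal also drops with host cell toxicity which is not excluded here; 0% = plate median of DMSO wells and 100% = zero luminescence signal; higher percent means less beta-gal luminescence so fewer parasites; stock transfer was 50 nL into about 50 µL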
Ecoli growth – inhibitors of Escherichia coli growth; actives 0.21% (n = 330,000); OD600, 23 h; hits give low values; OD600 absorbance (concentration not given with the values);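 active means OD600 absorbance below the run mean of sample wells minus 3.6 SD, in any replicate, cut at about 0.56 in these data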;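 further: stock transfer was 300 nL into about 60 µL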
Beta cell apopt – beta cell apoptosis inhibition | actives 0.8% (n = 300,000) | INS-1E cytokine-induced death, ATP luminescence, 48 h; percent of positive-control rescue, neutral wells zero | protection from apoptosis, % (no concentration beside the values);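 active means all replicates at 75% or more, or half of them and the mean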;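 further: 0% = cytokine-treated negative control wells and 100% = positive control rescue; higher means more ATP so stronger rescue from cytokine killing; wells of about 40 µL received 100 nL stock; the first replicate is given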
Ecoli rRNA inh – inhibits bacterial ribosomal RNA function over humanized ribosomes; E. coli WT GFP vs humanized-ribosome RFP mutants, fluorescence, 24 h; hits give low values; DMSO median 0, no signal -100; GFP signal change (wild-type ribosome), % (concentration not given with the values); actives 1.6% (n = 350,000); AID 720706;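 active means significant combined selectivity score with lowered wild-type GFP, culture density cut under 30%, mutant RFP and density less affected; inactive means any of these conditions unmet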; further: one replicate is shown; some compounds called inactive have numbers as strong as hits
AF4-AF9 inh – inhibitors of human MLL-AF4/AF9 interaction. P42568. AlphaScreen, biotin-AF4 peptide binding to FLAG-AF9. inhibition, % at 10 µM. actives 0.47% (n = 350,000). AID 651704;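 active means every replicate reaching a set inhibition limit, whatever the replicate mean, cut at about 25% in these data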;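 further: 0% = plate neutral control median and 100% = total signal loss; the record names both 10 and 1 µM as test concentration; the first replicate is given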
Target sequence (P42568 whole entry, looked up): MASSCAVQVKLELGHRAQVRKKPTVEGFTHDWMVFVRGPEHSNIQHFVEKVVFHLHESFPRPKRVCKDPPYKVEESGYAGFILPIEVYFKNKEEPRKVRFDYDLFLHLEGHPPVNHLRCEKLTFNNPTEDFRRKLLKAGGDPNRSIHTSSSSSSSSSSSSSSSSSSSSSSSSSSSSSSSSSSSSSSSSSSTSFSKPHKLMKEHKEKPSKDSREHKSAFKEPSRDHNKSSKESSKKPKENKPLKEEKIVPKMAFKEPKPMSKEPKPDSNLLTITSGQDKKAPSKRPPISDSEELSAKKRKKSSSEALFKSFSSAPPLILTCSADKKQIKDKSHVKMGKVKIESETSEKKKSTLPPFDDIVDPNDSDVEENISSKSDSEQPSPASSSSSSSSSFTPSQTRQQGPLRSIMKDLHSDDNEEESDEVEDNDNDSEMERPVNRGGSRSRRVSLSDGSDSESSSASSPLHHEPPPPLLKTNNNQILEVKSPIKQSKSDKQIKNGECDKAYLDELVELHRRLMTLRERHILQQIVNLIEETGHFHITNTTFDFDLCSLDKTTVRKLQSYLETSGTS
UCH37 inh – human UCH37 deubiquitinating enzyme inhibition | Q9Y5K5 | purified proteasome/UCH37, Ub-AMC cleavage fluorescence | inhibition, % (no concentration beside the values) | actives 0.33% (n = 330,000) | AID 588478;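 active means mean of two replicates above 20%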;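 further: 0% = compound-free wells with enzyme and 100% = wells lacking proteasome; stock transfer was 100 nL into about 20 µL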
Target sequence (Q9Y5K5 whole entry, looked up): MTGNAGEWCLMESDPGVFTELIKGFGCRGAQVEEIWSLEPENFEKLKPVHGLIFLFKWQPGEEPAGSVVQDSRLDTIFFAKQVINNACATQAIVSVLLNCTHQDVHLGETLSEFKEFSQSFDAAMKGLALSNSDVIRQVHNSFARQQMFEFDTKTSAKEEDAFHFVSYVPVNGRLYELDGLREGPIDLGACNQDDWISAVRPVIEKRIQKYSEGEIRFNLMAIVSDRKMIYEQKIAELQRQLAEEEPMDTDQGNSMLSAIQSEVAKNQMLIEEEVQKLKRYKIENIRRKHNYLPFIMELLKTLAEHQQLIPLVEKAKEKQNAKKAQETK
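Schedule: 30 min plus 25 min, room temperature / Material: human UCH37 within purified proteasomes / Technique: AMC fluorescence intensity at 355/460 nm / Buffer or medium: pH 7.4 Tris-HCl (50 mM) with ovalbumin, ATP-MgCl2, DTT / Controls: wells without proteasome as full block, compound-free enzyme plus substrate as uninhibited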
Ecoli rRNA inh OD600 – second read-out of Ecoli rRNA inh, no call of its own (marks repeat the call); OD600 change, %; measured here: OD600 growth;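 optical density of the mix in the first replicate; 0 = DMSO median and -100 = no signal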
Ecoli rRNA inh RFP – further read-out of Ecoli rRNA inh, marked with its call; RFP signal change, %; measured here: RFP humanized mutant strains;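 first replicate; 0 = DMSO median and -100 = no signal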
An asterisk follows results filed as active; i = inactive; · = no result given. These rows are one share of the data (hit frequency here may not be typical).

SMILES	Bfl-1 A1 inh	FGF22 binding	T cruzi repl	Ecoli growth	Beta cell apopt	Ecoli rRNA inh	Ecoli rRNA inh OD600	Ecoli rRNA inh RFP	AF4-AF9 inh	UCH37 inh
Cc1ccc2oc(=O)c3cnn(CC(=O)N4CCN(c5ccccc5)CC4)c3c2c1	-1.6	i	-3	0.78	-4	4	6	2.3	8.0	-1.4
Cc1cc(=O)oc(C)c1C(=O)NC1CCCCCCC1	-0.4	i	14	0.72	-3	6	10	-2.7	-5.8	3.0
COc1ccc(OC)c(NC(=O)Nc2nnc(N3CCCCC3C)s2)c1 (centres undefined)	0.1	i	8	0.69	2	-9	-12	2.6	1.2	2.4
CCOC(=O)c1ccc(NC(=O)CCS(=O)(=O)c2cccc3nonc23)cc1	-0.2	i	3	0.7	0	-1	-19	1.1	-3.5	6.6
CC(C)n1cc(CN2CCC(n3nccc3NC(=O)CCCc3ccccc3)CC2)cn1	0.0	i	17	0.72	0	5	1	-1.9	3.3	2.9
CC(C)NC(=O)NC(=O)COC(=O)Cc1ccsc1	1.3	·	-15	0.68	-11	·	·	·	·	6.0
CSc1ccc(C(=O)N2CCc3ccc(NC(=O)c4ccccn4)cc3C2)cc1	-2.9	i	19	0.72	9	-39	-45	-6.0	-0.8	3.7
CC1CCCC/C1=N\NC(=S)Nc1cccnc1 (centres undefined)	0.2	i	-8	·	1	12	15	-0.2	0.4	·
CCOC(=O)C1CCN(C(=O)CSc2ccccc2)CC1	0.8	·	-2	0.72	-2	·	·	·	·	4.0
O=C(NCCCNC(=O)c1ccc(Cl)cc1Cl)c1ccccn1	-0.2	i	-8	0.7	-9	-1	4	-2.1	-3.3	1.4
Cc1oc(-c2ccccc2F)nc1CS(=O)(=O)CC(=O)NC1CCCC(C)C1C (centres undefined)	-3.3	i	22	0.7	-7	-4	-3	-0.5	-3.1	3.1
FC(F)(F)c1ccc(-c2n[nH]c(=S)o2)nc1	0.2	i	-5	0.68	-3	0	10	0.5	-5.0	11
Cc1cccc(C(=O)Nc2sc3c(c2C#N)CCCCC3)c1	-5.6	·	21	0.73	8	·	·	·	·	-5.5
COC(=O)c1sc(S(=O)(=O)NCC(=O)O)c(C(=O)OC)c1C	0.3	i	-16	0.7	-7	19	7	-9.9	-0.3	2.8
O=C(COC(=O)C1CC2CCCC(C1)C2=O)Nc1nc(-c2ccc(F)c(F)c2)cs1 (centres undefined)	-0.2	i	-2	0.68	-2	0	3	1.3	-6.2	-0.2
CCN(CC)S(=O)(=O)c1cccc(C(=O)N[C@H](C(=O)NNC(=O)c2ccccc2)C(C)C)c1	0.0	i	-3	0.69	1	2	-6	-8.3	2.1	5.3
CCCCCOC(=O)C1=C(C)NC(=O)NC1c1ccccc1OCC (centres undefined)	-0.4	·	7	0.75	0	·	·	·	·	1.6
CCc1cc(=O)oc2c3c(cc(OCC(=O)Nc4cccnc4)c12)OC(C)(C)CC3	-0.8	i	34	0.73	15	-22	-19	-5.0	2.1	-213
COc1ccc(CC(=S)N2CCOCC2)cc1OC	0.6	·	-9	0.68	-3	·	·	·	·	1.4
COc1ccc(O)c(-c2cc(-c3ccc(F)cc3)n[nH]2)c1	-1.3	i	1	0.61	6	-14	-13	-3.0	6.5	2.8
O=P(c1ccc2c(c1)OCCO2)(N1CCOCC1)N1CCOCC1	1.9	·	-15	0.71	3	·	·	·	·	6.9
Cc1ccccc1NC(=S)N(CCN(C)C)C(C)c1ccccn1 (centres undefined)	1.4	·	0	0.65	-11	·	·	·	·	1.3
Cc1ccccc1OCCOC(=O)c1ccc(S(=O)(=O)N2CCCC2)cc1	·	i	·	0.63	·	0	-14	3.8	-0.7	3.0
CC1CCN(S(=O)(=O)c2ccc(S(=O)(=O)N3CCCC3)cc2)CC1	0.4	i	-9	0.7	-2	4	5	-1.4	-1.1	2.0

Quoted at random: 2 records from the list
SMILES	Bfl-1 A1 inh	FGF22 binding	T cruzi repl	Ecoli growth	Beta cell apopt	Ecoli rRNA inh	Ecoli rRNA inh OD600	Ecoli rRNA inh RFP	AF4-AF9 inh	UCH37 inh
CCc1cc(=O)oc2c3c(cc(OCC(=O)Nc4cccnc4)c12)OC(C)(C)CC3	-0.8	i	34	0.73	15	-22	-19	-5.0	2.1	-213
O=C(COC(=O)C1CC2CCCC(C1)C2=O)Nc1nc(-c2ccc(F)c(F)c2)cs1 (centres undefined)	-0.2	i	-2	0.68	-2	0	3	1.3	-6.2	-0.2

New compounds follow.
SMILES	Bfl-1 A1 inh	FGF22 binding	T cruzi repl	Ecoli growth	Beta cell apopt	Ecoli rRNA inh	Ecoli rRNA inh OD600	Ecoli rRNA inh RFP	AF4-AF9 inh	UCH37 inh
CCc1c(C(C)S(=O)(=O)c2ccccc2)[nH]c(=O)n1CC (centres undefined)	-0.5	·	-4	0.68	-1	15	18	-2.5	-0.9	3.5
COc1ccc(CC(=O)OCC(=O)NC(=O)Nc2ccccc2F)cc1	0.0	i	·	0.66	8	15	15	-2.0	1.2	-0.8
Cc1ccc(-c2cn3cccc(C)c3n2)cc1	·	i	-1	0.67	·	-12	-4	-4.0	-3.4	-10
Cc1cccc(N2C(=O)CC(N3CCN(Cc4ccc(Cl)cc4)CC3)C2=O)c1 (centres undefined)	-0.5	·	11	0.72	-15	·	·	·	·	-2.2
CC(NC(=O)COC(=O)C12CC3CC(CC(Br)(C3)C1)C2)c1ccccc1 (centres undefined)	0.8	i	·	0.69	7	-12	-13	2.6	7.0	2.2
COC(=O)c1ccc(CNC(=O)COC(=O)c2ccc(N(C)C)cc2)cc1	0.3	i	1	0.7	-1	11	11	-0.9	-0.4	-9.5
O=C(C1CCN(c2ncnc3c2nc2n3CCCCC2)CC1)N1CCN(c2cccc(Cl)c2)CC1	0.3	i	23	0.71	36	-6	-25	3.8	11	0.7
COc1ccc(CN2C(=O)c3cccnc3C2=O)cc1S(=O)(=O)N1CCCCC1C (centres undefined)	0.6	i	-8	0.69	-8	0	-1	-0.1	-40	0.0
COCCNC(=O)c1cc2cc(Cl)cc(Cl)c2oc1=O	1.7	i	-14	0.7	-3	14	8	-0.8	2.6	1.6
COc1cccc(C=Nc2ccc(N3CCOCC3)cc2)c1O	0.0	i	11	0.7	·	5	13	-5.8	11	4.3
O=S(=O)(NC1CCN(Cc2ccccc2)CC1)c1cccc(S(=O)(=O)N2CCOCC2)c1	0.1	·	0	0.67	-1	·	·	·	·	0.6
Cc1ccc2oc(/N=C(\N)NC(=O)C(C)(C)C)nc2c1	-5.5	i	-43	·	0	21	8	0.2	-2.8	·
CCCN(Cc1ccc(C)cc1)C(=O)c1ccc(CNS(=O)(=O)c2ccc(C(C)=O)cc2)cc1	-3.7	i	·	0.71	-3	8	15	-2.1	-0.6	4.7
O=C(NCc1cccnc1)c1cccc2c1C(=O)N(C1CCCCC1)C2	0.5	·	2	0.68	3	·	·	·	·	3.5
Cc1cc2cc(CN(CCCO)S(=O)(=O)c3cccc4nsnc34)c(=O)[nH]c2cc1C	1.0	i	-2	0.69	1	9	1	-4.6	-0.8	4.3
Cc1cc(N2C(=O)C3CC=CCC3C2=O)no1 (centres undefined)	0.0	·	-3	0.71	3	·	·	·	·	0.7
CC(C)N1CCC(N2CCN(C/C=C/c3ccc(F)cc3)CC2CCO)CC1 (centres undefined)	0.2	·	14	0.73	-1	8	6	3.5	1.6	2.6
CC1=C(C)C(=O)C(CCCCC#CCCCC#CCO)=C(C)C1=O	-1.3	·	-10	·	-4	·	·	·	·	3.5
CN(CC(=O)NCc1ccccn1)S(=O)(=O)c1ccc(Cl)cc1	1.3	·	·	0.72	-7	·	·	·	·	4.8
COc1ccc(/C=N\NC(=O)c2cccc([N+](=O)[O-])c2)cc1Cn1cc([N+](=O)[O-])cn1	-0.4	i	-9	·	-1	15	13	0.4	-0.7	·
O=C1COc2ccc(C(=O)COC(=O)c3sc4ccccc4c3Cl)cc2N1	0.3	i	-3	0.73	2	17	7	8.7	0.0	2.6
C=CCn1c(SCC2=C(C(=O)OCC)C(C)NC(=O)N2)nnc1C1CCCCC1 (centres undefined)	0.4	·	-1	0.66	-5	·	·	·	·	5.3
COc1nc(N(c2ccccc2)c2ccccc2)nc(-n2ccnc2)n1	-0.1	·	35	0.7	6	·	·	·	·	-0.2
COc1cccc(N2CCN(CC(=O)N3CCN(S(=O)(=O)c4ccc(Cl)cc4)CC3)CC2)c1	·	i	·	0.69	·	-8	-10	1.9	2.7	3.4
COc1ccccc1N1CCN(S(=O)(=O)c2cc(C)sc2C)CC1	0.5	i	13	0.71	-4	-3	-18	6.3	5.6	-2.4
CCOC(=O)c1nnc2cc(-c3ccccc3)nn2c1C	-1.5	·	·	0.69	3	·	·	·	·	0.3
CCOC(=O)N1CCN(S(=O)(=O)c2cc(Br)cc3c2N(C(C)=O)C(C)C3)CC1 (centres undefined)	1.2	·	0	0.71	3	·	·	·	·	2.2
CC(C)c1ccc(N(CC(=O)NC2CCCC2)C(=O)CCC(=O)Nc2nccs2)cc1	0.3	i	11	0.71	-2	10	21	-2.5	0.7	11
Cc1ccccc1-c1nc(CS(=O)(=O)CC(=O)NCCCN2CCOCC2)c(C)o1	-0.2	i	8	0.67	-7	-20	-34	-10	1.0	1.1
COc1ccccc1-n1c(SCC(=O)NC(C)(C)C)nc(O)cc1=O	0.7	i	4	0.71	-10	7	8	0.7	4.1	0.4
Cc1ccc(-n2nc3c(=O)n(CCCC(=O)NCc4cccc(Cl)c4)nc(C)c3c2C)cc1	1.4	i	-9	0.67	13	4	2	2.0	-3.7	3.9
O=C(NCCNc1ccc(Cl)cc1[N+](=O)[O-])c1cccnc1	1.0	i	-3	0.73	-5	2	-2	0.6	6.7	-2.8
Cc1c(NC(=S)NC(=O)c2cccc3ccccc23)cccc1C(=O)O	2.4	i	-2	0.68	-1	-7	-21	-4.5	-8.1	1.5
O=C(CN(Cc1ccco1)C(=O)CNS(=O)(=O)c1ccccc1)NCc1ccccc1	0.1	·	-5	0.79	0	·	·	·	·	-1.5
COc1cccc2oc3ccc(C#Cc4ccccn4)cc3c(=O)c12	-7.8	i	-2	·	35	-5	-2	-4.3	-12	-12
O=C(NCc1ccc2c(c1)OCO2)c1nc(Cn2cc([N+](=O)[O-])cn2)no1	-0.5	i	-6	0.67	-9	0	13	-0.1	-2.2	3.6
O=S(=O)(N/N=C/c1cccc(OC2CSC2)c1)c1ccccc1	0.0	i	-8	·	-12	-6	-8	4.0	-0.5	·
O=C(CSc1nc2ccccc2c(=O)n1CCCO)Nc1ccc2c(c1)OCCO2	·	i	·	0.67	·	2	8	-1.0	-13	-1.1
COc1cc2c(cc1OC)C(C)N(S(=O)(=O)c1cn(C)cn1)CC2 (centres undefined)	1.2	i	·	0.63	-4	4	1	-2.3	-0.5	1.9
CCN(CC(=O)NCc1ccccn1)S(=O)(=O)c1ccc(OC)cc1	-0.3	i	4	0.64	-2	6	4	0.2	-0.5	2.9
COc1ccc(CN2C(=O)c3cccnc3C2=O)cc1S(=O)(=O)N1CCOc2ccccc21	-1.5	i	-9	0.72	-5	3	8	0.3	5.3	1.4
Cc1ccc(NC(=O)N/C=C/c2ccco2)cc1C	0.3	·	-9	0.68	-6	·	·	·	·	0.6
CCCCNCc1ccc(SC)cc1	0.1	·	4	0.67	4	·	·	·	·	1.0
O=C(Nc1nc2ccc([N+](=O)[O-])cc2s1)c1ccncc1	-6.8	i	-24	0.66	20	8	5	0.9	-0.3	7.2

Source: PubChem BioAssay
